# From PubChem
# GLA inh pH 4.5: qHTS Assay for Inhibitors of Human alpha-Galactosidase at pH 4.5. purified enzyme, 4-MU-alpha-Gal fluorescence, pH 4.5. activity change, negative = inhibition, % at 105 µM. 230,000 tested, under 10 active. AID 1467, 2008; inconclusive = small, poorly fitted or top-dose-only inhibition, or a rising curve; inactive = flat fitted curve, though single readings scatter; no compound was filed as active;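 note: 0% = full activity with enzyme and -100% = basal without enzyme; dose as in the result columns while the protocol names 77 µM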
# miR-21 FLuc: qHTS Assay for Modulators of miRNAs and/orActivators of miR-21. Potency, µM (series often up to 38.3 µM), for inactives: top-dose reporter change, positive = more light. 340,000 tested, under 10 active. AID 2288, 2010. HeLa miR-21 FLuc reporter, luciferase, 48 h; active = well fitted rising curve with a large enough effect; inconclusive = small, poorly fitted or top-dose-only effect; inactive = no such curve, though single readings can be large or run the other way;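 note: % of control where 0% means no effect; miR-21 action dims this reporter so a rising signal means less miR-21 action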
#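 HeLa cells stably expressing CMV-driven firefly luciferase with a downstream miR-21 binding sequence, endogenously expressing miR-21, were treated with titrations (up to about 40uM final) for 48 hours at 37 degree Celsius. Luciferase luminescence was read after lysis.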
# Rango release inh: qHTS Assay for Inhibitors of RanGTP induced Rango (Ran-regulated importin-beta cargo) - Importin beta complex dissociation; Snurportin-1 (Homo sapiens) + GTP-binding nuclear protein Ran (Homo sapiens) + Importin …; Biochemical FRET Rango-importin beta, RanGTP-induced dissociation; Potency, µM (series often up to 46.1 µM), for the others: at the highest dose activity change, negative = inhibition; 340,000 tested, 0.071% active; active means falling FRET ratio curve, often poorly fitted, with flat reads before Ran was added; inconclusive means other falling curves, or compound fluorescence or quenching; inactive means flat or rising ratio curve;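 note: potency is the fitted concentration of half-maximal effect; % of control where 0% means no effect; nearly all actives have a fitted effect of over 45% in size; -100% = wells without RanGTP and RCC1; the record marks most hits as doubtful in a second field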
#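 FRET read at 45 min, room temperature: inhibitors block the CFP/YFP signal rise when RanGTP (0.6 uM Ran, 2 mM GTP, 0.2 uM RCC1) frees Rango (0.1 uM) from importin beta (0.25 uM). Pre-read after 5 min compound exposure flags interference.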
# Rango-impB inh: qHTS Assay for Inhibitors of Rango (Ran-regulated importin-beta cargo) - Importin beta complex formation; Importin subunit beta-1 (Homo sapiens), Q14974; Rango CFP/YFP FRET sensor + importin beta, 45 min; Potency, µM (series often up to 92.2 µM), for inactives: at the top dose inhibition of complex formation; 340,000 tested, 0.031% active; active = rising FRET ratio curve, often small or poorly fitted; inconclusive = mostly compound fluorescence or quenching in the first reads; inactive = flat curves in all reads;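 note: potency is the fitted concentration of half-maximal effect; 0% = DMSO wells and 100% = buffer wells lacking importin beta; nearly all actives have a fitted effect of over 15% in size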
# Target sequence (Q14974 whole entry, looked up): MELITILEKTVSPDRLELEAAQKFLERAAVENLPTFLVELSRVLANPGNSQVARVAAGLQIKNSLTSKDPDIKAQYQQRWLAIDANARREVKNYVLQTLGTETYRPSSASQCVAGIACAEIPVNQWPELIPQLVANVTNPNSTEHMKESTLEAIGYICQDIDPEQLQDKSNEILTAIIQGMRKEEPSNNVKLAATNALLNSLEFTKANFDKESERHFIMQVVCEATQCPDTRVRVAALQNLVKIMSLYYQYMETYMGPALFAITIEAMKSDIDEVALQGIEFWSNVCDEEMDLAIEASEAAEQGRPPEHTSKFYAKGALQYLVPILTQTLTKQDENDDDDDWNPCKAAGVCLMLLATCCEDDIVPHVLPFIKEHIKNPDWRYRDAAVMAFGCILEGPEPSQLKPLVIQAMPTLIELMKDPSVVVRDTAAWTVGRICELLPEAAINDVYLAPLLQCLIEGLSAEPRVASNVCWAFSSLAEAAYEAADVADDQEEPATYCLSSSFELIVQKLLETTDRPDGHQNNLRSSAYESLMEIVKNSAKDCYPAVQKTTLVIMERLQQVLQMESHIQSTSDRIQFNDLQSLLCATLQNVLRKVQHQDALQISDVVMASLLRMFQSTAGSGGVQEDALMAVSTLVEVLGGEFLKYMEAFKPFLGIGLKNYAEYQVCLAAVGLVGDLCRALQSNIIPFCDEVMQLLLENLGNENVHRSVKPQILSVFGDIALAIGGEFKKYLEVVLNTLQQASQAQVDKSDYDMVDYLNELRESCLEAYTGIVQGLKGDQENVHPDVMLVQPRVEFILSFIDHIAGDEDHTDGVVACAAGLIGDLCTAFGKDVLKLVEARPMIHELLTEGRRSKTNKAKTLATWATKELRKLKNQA
#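 Inhibition scored from the CFP 486 nm/YFP 530 nm FRET ratio 45 min after adding 0.125 microM importin beta to 50 nM Rango biosensor preincubated 5 min with compound (room temperature, PBS with DTT, Tween-20, BSA). No-importin wells as positive control.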
# The depositor's hits bear a star; ? = inconclusive; . = not tested or not shown; & = joins results of further samples. A portion of the library (hit frequency here may not be typical).
# The first three compounds, ahead of the listing:
GLA inh pH 4.5	miR-21 FLuc	Rango release inh	Rango-impB inh	compound
12	-5%	0%	-4.6%	COc1ccc(CCNC(=O)CSc2ncn[nH]2)cc1
.	3%	4%	-1.9%	O=C(CSc1ccc(-c2ccco2)nn1)Nc1ccc(F)cc1F
6	1%	21%	0.0%	Cc1cccc(C)c1NC(=O)C1=C(O)c2ccccc2N(C)S1(=O)=O

# Results, from the start:
GLA inh pH 4.5	miR-21 FLuc	Rango release inh	Rango-impB inh	compound
12	-5%	0%	-4.6%	COc1ccc(CCNC(=O)CSc2ncn[nH]2)cc1
.	3%	4%	-1.9%	O=C(CSc1ccc(-c2ccco2)nn1)Nc1ccc(F)cc1F
6	1%	21%	0.0%	Cc1cccc(C)c1NC(=O)C1=C(O)c2ccccc2N(C)S1(=O)=O
.	-3%	0%	5.0%	O=C(Nc1ccnn1C1CCN(Cc2ccccc2)CC1)c1ccccc1Cl
.	.	-11%	-1.1%	O=c1c2ccccc2oc2cc(C#CC3(O)CCCCC3)ccc12
-9	0%	-11%	-0.4%	CCOc1cc(NC(=S)NCCOC)c(OCC)cc1NC(=O)c1ccco1
10	20%	26%	4.1%	C#CC(=O)N(c1cc(OC)ccc1OC)C(C(=O)NC1CCCC1)c1cccs1 (centres undefined)
0	-4%&-7%	-4%	-3.0%	CCc1ccccc1NC(=O)Cn1nc(C(F)(F)F)c2c1CCC2
4	6%	9%	3.2%	CCc1ccc(NC(=O)CSc2nnc(-c3n[nH]c4ccccc34)n2-c2ccccc2)cc1
.	4%	-7%	-0.4%	C#CCn1c(O)c(N=NC(=O)CNC(=O)/C=C/c2ccccc2)c2ccccc21
1	0%	8%	2.7%	CN(C)C(=S)c1ccc2ccccc2n1
-1	-4%	0%	7.7%	CCOC(=O)CNC(=O)Nc1cc(C(C)(C)C)nn1-c1ccccc1
.	.	0%	-4.7%	CCSc1ccc([C@@H]2[C@H]3C(=O)N(C)C(=O)[C@H]3[C@]3(C(=O)OC)CCCCN23)cc1OC
-4	-13%	0%	2.4%	O=C(CC1C(=O)N(c2ccccc2)C(=S)N1c1ccccc1)c1ccc(Br)cc1 (centres undefined)
.	-3%	-8%	-0.1%	O=C(C(=O)N1CCN(c2ccccc2F)CC1)c1cn(CC(=O)N2CCOCC2)c2ccccc12
1	-5%	-12%	1.6%	COc1ccc(Cl)cc1NC(=O)C/C(C)=N/NC(=O)CC#N
-2	-7%	-9%	0.5%	Cc1ccc(S(=O)(=O)N(CC(=O)N2CCCCC2)c2cccc(C)c2)cc1
.	.	-4%	3.6%	O=C(NCCS(=O)(=O)N1CCC2(CC1)OCCO2)c1ccccc1
-4	-11%	-4%	-0.9%	COCc1cc(C)nc(SCC(=O)N2CCC(C)CC2)c1C#N
-4	23%	18%	2.2%	CCCCCCN(C(=O)CCl)c1ccccc1
.	.	-1%	-3.6%	O=S(=O)(NC1CCN(S(=O)(=O)c2ccc3c(c2)OCCO3)C1)c1c(F)cccc1F (centres undefined)
.	.	0%	-0.5%	COc1ccc(-c2csc(NC(=O)CS(=O)(=O)c3ccc(F)cc3)n2)cc1OC
-1	-1%	-15%	7.1%	COc1ccccc1NC(=O)CSc1nnc(-c2ccccn2)n1Cc1ccco1
9	0%	1%	-0.8%	O=C(CSc1nnc(-c2cccnc2)o1)Oc1ccccc1
-3	-19%	?	?	N#C/C(=C\c1ccc(OCc2ccccc2)cc1)C(=O)Nc1nc2c(s1)CCN(Cc1ccccc1)C2
-7	10%	-12%	2.2%	COc1ccc(NS(=O)(=O)c2ccc(N3CCOCC3)c(NC(=O)C(C)C)c2)cc1
.	-7%	-4%	0.1%	O=C(NC1CCCc2ccccc21)c1ccc([N+](=O)[O-])cc1 (centres undefined)
.	1%	15µM*	?	Cc1ccc(-c2cc(C(=O)Nc3cccc(S(=O)(=O)N(C)C)c3)c3ccccc3n2)o1
-3	-4%	-7%	0.3%	CC(C(=O)Nc1ccccn1)N1C(=O)C2C3C=CC(C3)C2C1=O (centres undefined)
2	-3%	3%	?	CC(=O)NC1C(=O)N=C(SCC(=O)NC(C)c2ccccc2)NC1=O (centres undefined)
.	.	-15%	0.1%	O=C(NCc1ccccc1)NC(=O)c1ccc(Cl)cc1
.	-26%	-5%	0.2%	O=C(CSc1ccccc1)Nc1nnc(C2CC2)s1
.	.	4%	3.5%	O=C(CN1CCN(CC(=O)Nc2ccc(OCc3ccccc3)cc2)CC1)Nc1ccc(F)cc1
6	-8%	5%	-0.9%	CC(C)NC(=S)N1CCN(Cc2ccc3c(c2)OCO3)CC1
.	3%	-7%	7.4%	COc1ccccc1-c1n[nH]c(=S)n1Cc1ccccc1
5	0%	0%	3.1%	CCCOc1ccc(CCc2n[nH]c(=S)n2-c2ccccc2)cc1
7	3%	0%	-4.3%	Cc1cc(C)c2c(N)c(-c3nnc(SCc4ccc(Cl)cc4)n3C)sc2n1
2	0%	0%	-1.4%	CCCCN(C)Cc1c(C)[nH]c2ccc(C)cc2c1=O
4	1%	19%	0.9%	COC(=O)C1CCN(C(=O)Cc2ccccc2OC)CC1
1	-3%	-1%	0.7%	COc1ccc(C2C(C(=O)N3CCOCC3)=C(C)NC3=C2C(=O)CC(C)(C)C3)cc1O (centres undefined)
.	.	-14%	-3.0%	CSc1ccc(C2NC(=O)c3ccccc3N2)cc1 (centres undefined)
2	-4%	-13%	?	CC(C)CN(CC(C)C)C(=O)CS(=O)(=O)Cc1ccccc1
2	?	0%	-1.5%	COc1ccc(-c2oc(NC(=O)CCl)c(C#N)c2-c2ccc(OC)cc2)cc1
-28	-2%	4%	1.6%	CN(C)S(=O)(=O)Oc1ccccc1C(=O)Nc1cccc(C(F)(F)F)c1
2	0%	4%	-5.0%	COc1cc(NC(=S)N2CCOCC2)c(OC)cc1Cl
.	.	-9%	-1.2%	Cc1ccc(S(=O)(=O)N2CCOCC2)cc1NC(=O)COc1ccccc1Cc1ccccc1
2	-10%	-15%	-1.6%	Cn1c(=O)c2c(c3ccccc31)OC(C)(C)CC2
-4	0%	0%	-3.8%	COc1ccc(/C=C/C(=O)OCC(=O)Nc2ccc(C)cc2)cc1S(=O)(=O)N1CCOCC1
-6	0%	14%	2.4%	O=S1(=O)N=C2CCCCCN2C(c2ccc(Cl)cc2)N1 (centres undefined)
4	0%	29%	1.9%	CCOC(=O)CSc1nnc(CNC(=O)c2ccc(S(=O)(=O)N(C)C)cc2)n1C
5	-5%	10%	-2.5%	CCCCn1c(SCc2nc3ccccc3s2)nc2ccccc2c1=O
-25	-2%	9%	2.4%	CCc1cccc(CC)c1NC(=O)c1ccc(-n2cncn2)nc1
-2	5%	-8%	-1.8%	Cc1sc2ncnc(N3CCC(C(=O)Oc4cccc(Cl)c4Cl)CC3)c2c1C
5	-1%	3%	-1.9%	Cc1sc2nc(N3CCOCC3)[nH]c(=O)c2c1-c1ccccc1
-8	-6%	-6%	-4.9%	CCCNC(=O)NC1C(NC(=O)NCCC)N(C)C(=O)N1C (centres undefined)
.	.	9%	0.6%	c1ccc(CC[C@@H]2CC[C@@H](CCc3ccccc3)N2)cc1
-2	-7%	17%	-4.0%	COc1ccc(-c2nnc3ccc(SCc4ccccc4)nn23)cc1
.	.	-7%	-5.5%	N#Cc1ccc(OCC(=O)Nc2ccc(N3CCCC3)cc2)cc1
1	-3%	-14%	-0.1%	O=C(CSc1nnc(COc2cccc3ccccc23)o1)N1CCN(C(=O)c2ccco2)CC1
5	-7%	?	0.5%	CC#CCCc1nc2ccccc2c(=O)n1N

# Compound profiles, as listed above. Screens in order: GLA inh pH 4.5 | miR-21 FLuc | Rango release inh | Rango-impB inh
# Profile of O=C(NCCS(=O)(=O)N1CCC2(CC1)OCCO2)c1ccccc1 → . | . | -4% | 3.6%
# Profile of O=C(CSc1nnc(-c2cccnc2)o1)Oc1ccccc1 → 9 | 0% | 1% | -0.8%
# Profile of COc1ccc(CCNC(=O)CSc2ncn[nH]2)cc1 → 12 | -5% | 0% | -4.6%
# Profile of O=c1c2ccccc2oc2cc(C#CC3(O)CCCCC3)ccc12 → . | . | -11% | -1.1%

# Continued:
GLA inh pH 4.5	miR-21 FLuc	Rango release inh	Rango-impB inh	compound
0	-5%	15%	-2.9%	CCN(Cc1ccccc1)C(c1ccc(Cl)cc1)c1nnnn1C(C)(C)C (centres undefined)
.	-3%	-1%	0.8%	Cc1ccc(S(=O)(=O)Nc2cccc(-n3cnnn3)c2)cc1C(=O)O
1	-5%	-7%	-0.2%	Cc1nc(-c2ccc(Cl)cc2)sc1C(=O)NNC(=O)C(C)C
.	-1%	1%	-2.4%	CCCCn1c(N)c(N(CC(C)C)C(=O)c2ccc(Br)s2)c(=O)[nH]c1=O
.	.	1%	0.9%	COc1cc(CC(=O)OCC(=O)c2ccc(F)cc2)cc(OC)c1OC
.	-8%	17%	0.6%	O=C1NC2(CCCCCC2)C(=O)N1Cc1cccc(Cl)c1
.	6%	7%	-2.6%	O=c1[nH]c2ccc(S(=O)(=O)Nc3ccc(Cl)cc3)cc2[nH]1
-4	-4%	-5%	-2.6%	CCN(CC)S(=O)(=O)c1ccc2c(c1)nc(CCC(=O)OCC(=O)N1CCc3ccccc31)n2C
-3	5%	7%	0.3%	Cc1ccsc1-c1nc(-c2ccccc2)c(-c2ccccc2)[nH]1
4	-5%	-5%	-3.1%	CCCCCn1c(CNC(=O)COC)nc2ccccc21
.	.	8%	0.3%	COc1ccc([C@H]2CC(=O)C=C(c3ccc(Cl)cc3C)C2)cc1
-6	-2%	1%	5.6%	COc1cccc(/C=C/C(=O)OCC(=O)NCC2CCCO2)c1 (centres undefined)
6	1%	-13%	-1.1%	CC1CC1C(=O)OCC(=O)NCc1ccccc1Cl (centres undefined)
4	-29%	-8%	-4.0%	O=C(Cc1ccccc1)N/N=C/c1ccc2cccc(O)c2n1
?	-12%	-4%	-3.2%	O=C1c2ccccc2C(=O)N1CCC(c1ccc(F)cc1)c1ccco1 (centres undefined)
.	13%	0%	6.1%	CC1CCN(C(=O)C2CCN(c3ncnc4c3nc3n4CCCCC3)CC2)CC1
7	8%	-6%	-0.3%	COCCCN(C(=O)Cc1ccc(Cl)c(Cl)c1)c1c(N)n(Cc2ccccc2)c(=O)[nH]c1=O
.	.	19%	-4.6%	COc1ccccc1N(C)S(=O)(=O)c1ccc(C(=O)Nc2cccc(S(=O)(=O)N3CCOCC3)c2)cc1
-18	10%	27%	2.6%	CCOc1ccc(Oc2c(/C=N/NC(=O)COc3ccccc3OC)c(C)nn2-c2ccccc2)cc1
.	.	-4%	0.6%	O=C(COc1ccc(Br)cc1CO)Nc1ccc(S(=O)(=O)N2CCCC2)cc1
-8	7%	28%	0.7%	CCCNCc1cc(Br)ccc1OCC(=O)NCCc1ccccc1
?	-6%	-14%	-3.3%	O=C(c1cc2c(=O)n3ccccc3nc2s1)N1CCN(Cc2ccc3c(c2)OCO3)CC1
-9	-1%	3%	-1.7%	CC(Nc1ccc(Cl)cc1)c1cc(Cl)ccc1O (centres undefined)
7	-22%	-8%	7.6%	CC(C)(C)c1ccc(C(=O)N2CCC(=O)N(C(CO)Cc3ccccc3)CC2)cc1 (centres undefined)
2	-1%	9%	0.6%	CCc1ccc(NC(=O)CSc2ccc(-c3ccco3)nn2)cc1
2	4%	-9%	3.1%	CCC1CCCCN1C(=O)COc1cccc2c1CCN(C)C2=O (centres undefined)
.	-18%	26%	-0.5%	Cc1c(OCC(=O)N(C)C)ccc2c(-c3ccccc3)cc(=O)oc12
13	0%	2%	-4.3%	CCOC(=O)c1sc(NC(=O)CSc2nc(-c3ccco3)cc(C(F)(F)F)n2)c(C(=O)OC)c1C
-11	-2%	1%	6.0%	O=C(Nc1cnccn1)C1c2ccccc2Oc2ccccc21
.	-1%	-13%	-3.3%	CCc1ccccc1NC(=O)c1ccc2snnc2c1
